# High-throughput results as filed in PubChem BioAssay.
# KCNQ2 pot = enhances the rat KCNQ2 potassium channel; O88943; CHO-K1 KCNQ2, FluxOR thallium flux fluorescence; stronger effect = higher value; B-score at 10 µM; 310,000 tested, 0.54% active;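 active = fluorescence ratio B-score at least 3 SD of library B-scores, with initial fluorescence B-score within 3 SD, cut at about 5.3 in these data; same plate scores as AID 2156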;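 note: B-score of peak minus minimum over baseline fluorescence ratio after K+ and Tl+ stimulus; positive B-score means potentiation of KCNQ2 with more thallium influx and brighter signal; only the inactives scoring about 0 or higher are listed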
# Target sequence (O88943 whole entry, looked up): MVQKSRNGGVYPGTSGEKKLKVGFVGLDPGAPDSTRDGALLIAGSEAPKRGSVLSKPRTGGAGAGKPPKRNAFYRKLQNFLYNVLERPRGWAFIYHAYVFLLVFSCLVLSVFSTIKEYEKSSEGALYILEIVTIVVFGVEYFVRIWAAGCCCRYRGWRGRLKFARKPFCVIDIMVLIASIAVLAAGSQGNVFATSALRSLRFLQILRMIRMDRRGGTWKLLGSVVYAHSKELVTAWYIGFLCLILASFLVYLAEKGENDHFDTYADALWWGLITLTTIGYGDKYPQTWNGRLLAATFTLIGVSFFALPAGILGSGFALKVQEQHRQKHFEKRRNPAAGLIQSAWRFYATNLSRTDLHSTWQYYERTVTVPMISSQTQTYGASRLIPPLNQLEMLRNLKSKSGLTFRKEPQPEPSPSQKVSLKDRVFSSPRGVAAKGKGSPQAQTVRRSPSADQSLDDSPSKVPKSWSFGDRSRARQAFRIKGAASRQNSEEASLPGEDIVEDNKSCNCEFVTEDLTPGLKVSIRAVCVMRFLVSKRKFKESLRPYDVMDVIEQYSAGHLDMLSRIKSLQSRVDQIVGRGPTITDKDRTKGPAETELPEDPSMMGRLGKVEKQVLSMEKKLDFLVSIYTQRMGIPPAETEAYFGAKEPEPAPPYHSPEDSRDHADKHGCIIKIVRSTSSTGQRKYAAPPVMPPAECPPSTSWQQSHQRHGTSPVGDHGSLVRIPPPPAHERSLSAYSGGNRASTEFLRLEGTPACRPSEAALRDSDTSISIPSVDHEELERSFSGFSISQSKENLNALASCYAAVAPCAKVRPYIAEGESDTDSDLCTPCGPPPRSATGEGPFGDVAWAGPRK
# KCNQ2 pot baseline = recorded beside KCNQ2 pot, whose call it bears; B-score; compound at 10 µM; measured here: initial fluorescence intensity artifact check;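 brightness before thallium and not channel activity; 0 = typical well and far values either way flag optical interference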
# The depositor's hits bear a star.
# Values run as follows: KCNQ2 pot	KCNQ2 pot baseline
CCOc1ccc(NC(=O)CCCn2nc(C)c3c(C)n(-c4ccccc4)nc3c2=O)cc1
→ 0.15	-0.79
O=C(Cn1c2c(c(-c3ccccc3Cl)cc1=O)CCC2)NCCCN1CCOCC1
→ 1.6	-2.2
Cc1[nH]n(-c2ccccc2)c(=O)c1N=Nc1c(Cl)cccc1Cl
→ 0.21	0.88
Cc1ccc(C(=O)N2NC(c3ccccc3F)C3C(=O)N(c4cccc(C)c4)C(=O)C32)cc1 (stereo unspecified)
→ 0.79	-0.65
COc1ccc(-n2c(SCC(=O)Nc3cccc(S(N)(=O)=O)c3)nc3ccccc3c2=O)cc1OC
→ 0.47	-0.24
Cc1cccc(NC(=S)NC(=O)c2ccc(Br)o2)c1
→ 13*	1.7*
COCCSc1ccccc1C(=O)Nc1nnc(C)s1
→ 0.1	-0.02
N#Cc1ccc(OCc2ccc(C(=O)O)o2)cc1
→ 0.7	0.26
O=C1CCC[C@@H]2[C@H]3CCC[N+]4([O-])CCC[C@@H](CN12)[C@@H]34 (stereo partly specified)
→ 0.66	-0.41
Cc1nc(NCC2CC2)c2nnn(Cc3ccccc3)c2n1
→ 2.3	0.82
c1ccc(CSc2ncnc3c2sc2nc(N4CCOCC4)c4c(c23)CCCC4)cc1
→ 1.1	0.12
Nc1nc(SCC(=O)N2CCCc3ccccc32)[nH]c(=O)c1-c1ccccc1
→ 0.97	-0.24
COc1ccc(C(=O)N/C(=C/c2cccnc2)C(=O)Nc2cccc(C(C)=O)c2)cc1OC
→ 0.79	0.73
CCN1CCN(C(=O)c2ccc(Sc3ccccc3Cl)c([N+](=O)[O-])c2)CC1
→ 0.01	1
Cn1nc(C(=O)Nc2sccc2C(N)=O)ccc1=O
→ 0.01	-0.77
CN(C)C(=O)N1CCCC(C(=O)NCCc2ccccc2)C1 (stereo unspecified)
→ 0.14	0.41
Cc1cc(C)nc(N2CCN(c3nnnn3-c3ccccc3)CC2)n1
→ 0.83	2.2
COc1ccc(N2CC(C(=O)N[C@H](C(=O)NC3CCCCC3)C(C)C)CC2=O)cc1 (stereo partly specified)
→ 0.04	0.09
O=C(NNC(=O)C1CCN(Cc2ccccc2)CC1)c1cccs1
→ 0.14	1.2
Cc1cc(-c2n[nH]c(=S)n2/N=C/C=C/c2ccco2)n[nH]1
→ 0.9	0.91
CC(C)NC(=S)N1CCN(c2ncccn2)CC1
→ 0.49	-0.47
Cc1onc(-c2ccccc2)c1C(=O)N1CCC(C)CC1
→ 0.58	-0.01
CCN(CC(=O)Nc1cc(Cl)ccc1OC)CC(=O)NC1CCS(=O)(=O)C1 (stereo unspecified)
→ 0.43	0.54
O=C(c1ccc(S(=O)(=O)Nc2ccccc2)cc1)N1CCCC(C(F)(F)F)C1 (stereo unspecified)
→ 0.71	1.1
CC(OC(=O)c1cccc(N2C(=O)c3ccccc3C2=O)c1)C(=O)Nc1ccc(N(C)C)cc1 (stereo unspecified)
→ 0.12	0.76
CCc1ccc(-c2ccc(SCC(=O)NCC3CCCO3)nn2)cc1 (stereo unspecified)
→ 0.12	-0.63
C#CCOc1nc2c(c(=O)n(C)c(=O)n2C)n1Cc1ccccc1
→ 0.95	-0.99
Cc1ccc2cccc(OCC(=O)N3CC(C)CC(C)C3)c2n1 (stereo unspecified)
→ 1.7	0.29
Cc1oc(-c2ccc(Cl)cc2)nc1CN1CCCC(C(=O)N2CCN(C(=O)c3ccco3)CC2)C1 (stereo unspecified)
→ 2.1	-0.24
CN(c1cccc(NC(=O)c2ccc(C(C)(C)C)cc2)c1)S(C)(=O)=O
→ 1.2	-0.79
C[C@H](NC(=O)NCc1ccc(F)cc1)C(=O)O
→ 1.9	0.24
C=CCN1C(=O)C(Cc2ccccc2Cl)SC1=Nc1ccc(C(=O)O)cc1 (stereo unspecified)
→ 0.68	-0.25
CC(=O)CC(=O)Nc1ccc(C(N)=O)cc1
→ 0.39	0.94
CN1C(=O)/C(=N/OC(=O)c2ccccc2Br)c2ccccc21
→ 0.82	-0.41
Cc1cc(=O)n2cccc(O)c2n1
→ 0.64	-1.5
COc1ccc(OCC(=O)NNC(=O)c2cccs2)cc1
→ 0.01	-0.91
CCC(CC)n1[nH]c(=O)cc1N
→ 0.33	2.3
Cc1cc(C(=O)Nc2c(C)n(C)n(-c3ccccc3)c2=O)c2ccccc2n1
→ 0.04	-0.29
CCOc1ccc(C(=O)NC2CC(C)(C)NC(C)(C)C2)cc1
→ 1.6	-0.09
COc1ccc(C)cc1Cn1c(S(C)(=O)=O)nc2ccccc21
→ 0.08	0.67
CCc1cccc(C)c1NC(=S)N1CCCCC1c1cccnc1 (stereo unspecified)
→ 0.03	-0.58
COc1cccc(C2C(C#N)=C(N)N(c3ncn[nH]3)C3=C2C(=O)CCC3)c1 (stereo unspecified)
→ 0.6	-0.47
CC(C)(C)c1ccc(C(=O)NCC(=O)OCC(=O)Nc2ccccc2[N+](=O)[O-])cc1
→ 3.7	-0.16
CCNC(=S)NNC(=O)c1csc2c1CCCC2
→ 1.4	0
COc1cc(-c2cc(C(=O)Nc3cccc(S(=O)(=O)N(C)C)c3)c3ccccc3n2)cc(OC)c1OC
→ 0.5	-1.1
N#CCn1c(C2CCCCC2)nc2ccccc2c1=O
→ 0.94	-1.2
Cc1ccc(S(=O)(=O)NCCn2nc(C)cc2C)cc1
→ 0.24	1.1
Cc1ccc(N2C(=O)C3CCC(C)(C2=O)C3(C)C)cc1 (stereo unspecified)
→ 0.09	-0.01
Cc1ccc2oc(-c3ccc(NC(=O)CC(C)C)cc3)nc2c1
→ 0.69	1.4
Cc1ccc(S(=O)(=O)CC(=O)NC2CC2)cc1
→ 1.2	-1.2
COC(=O)c1sccc1NC(=O)CN(C)NS(=O)(=O)c1ccc(Cl)cc1
→ 0.61	-1.8
CCOc1[nH]n(-c2ccccc2)c(=O)c1C=Nc1ccc(OC)cc1
→ 0.02	-0.23
C/C(=N\NC(=O)c1c(Cl)cnn1C)c1cccnc1
→ 1.7	0.48
CN1CCN(C2=C(Cl)C(=O)N(c3cccc(Cl)c3)C2=O)CC1
→ 0.04	-0.31
CCSC1=C(C#N)C(c2ccccc2OC)CC(=O)N1 (stereo unspecified)
→ 0.94	2.2
CN(C)/C=C1/N=C(c2ccccc2)OC1=O
→ 1.4	1.1
COc1ccc(CCN2CC(C(=O)N(C)CCc3cn[nH]c3)CCC2=O)cc1 (stereo unspecified)
→ 3	-1.9
Cc1ccccc1C(=O)N1CCC(C(=O)O)CC1
→ 0.72	0.1
COC(=O)C(C(=O)OC)c1ccc(-n2cccc2)cc1
→ 1.6	0.23
COc1ccc(CCN=C(N)NS(=O)(=O)c2cccs2)cc1
→ 0.02	-0.45

# Whole records, quoted from the list:
# Cc1ccc(S(=O)(=O)NCCn2nc(C)cc2C)cc1 in the list: KCNQ2 pot: 0.24; KCNQ2 pot baseline: 1.1
# COc1ccc(CCN2CC(C(=O)N(C)CCc3cn[nH]c3)CCC2=O)cc1 (stereo unspecified) in the list: KCNQ2 pot: 3; KCNQ2 pot baseline: -1.9
# COc1cccc(C2C(C#N)=C(N)N(c3ncn[nH]3)C3=C2C(=O)CCC3)c1 (stereo unspecified) in the list: KCNQ2 pot: 0.6; KCNQ2 pot baseline: -0.47

# Looked up one by one from the list above, six records:
# Values run as follows: KCNQ2 pot	KCNQ2 pot baseline
COc1ccc(OCC(=O)NNC(=O)c2cccs2)cc1
→ 0.01	-0.91
CCNC(=S)NNC(=O)c1csc2c1CCCC2
→ 1.4	0
Cc1cc(C(=O)Nc2c(C)n(C)n(-c3ccccc3)c2=O)c2ccccc2n1
→ 0.04	-0.29
CC(=O)CC(=O)Nc1ccc(C(N)=O)cc1
→ 0.39	0.94
C[C@H](NC(=O)NCc1ccc(F)cc1)C(=O)O
→ 1.9	0.24
CCOc1[nH]n(-c2ccccc2)c(=O)c1C=Nc1ccc(OC)cc1
→ 0.02	-0.23

# Additional records.
# Values run as follows: KCNQ2 pot	KCNQ2 pot baseline
COc1ccc(Nc2nccc3c2nnn3C)cc1
→ 0.05	-0.12
O=C(Nc1nnc(COc2ccccc2)s1)c1ccco1
→ 0.98	-0.6
O=C(Nc1ccccc1C(=O)Nc1ccccn1)c1ccccc1F
→ 0.6	0.07
CC(NC(=O)C1CCN(S(=O)(=O)c2ccc(Br)s2)CC1)c1ccccc1 (stereo unspecified)
→ 6.8*	0.49*
CCOc1cc(/C=N/NC(=O)c2cccnc2)ccc1O
→ 2.4	0.06
CN1CCN(C(=O)CSc2nc3ccc(NC(=O)c4ccccc4F)cc3s2)CC1
→ 1.3	0.43
CC(OC(=O)C1=COCCO1)C(=O)Nc1ccc(Oc2ccccc2)cc1 (stereo unspecified)
→ 0.92	0.15
CCOC(=O)c1[nH]c(C)c(C(=O)N(C)Cc2ccccc2)c1C
→ 1.9	0.62
Cn1c(=O)[nH]c(=O)c2c1nc(N1CCCCC1)n2C/C=N/NC(=O)c1cc(Br)ccc1O
→ 0.64	0.47
COc1ccc(NC(=O)CCC(=O)c2cccs2)cc1S(=O)(=O)Nc1ccc(Cl)cc1
→ 0.57	0.28
COC(=O)[C@@]12CCCN1[C@H](c1ccc(-c3ccc(Cl)c(Cl)c3)cc1)[C@H]1C(=O)N(C)C(=O)[C@H]12
→ 0.12	0.95
Cc1cccc(C(=O)N2CCCC(Nc3ccc(C)c(C)c3)C2)n1 (stereo unspecified)
→ 0.17	1.7
CS(=O)(=O)c1ccc(C(=O)OCC(=O)c2ccc(Cl)s2)cc1
→ 0.64	-0.2
CCN(CC)CCNC(CC(=O)Nc1ccc(Cl)cc1Cl)C(=O)O (stereo unspecified)
→ 0.46	0.76
O=C(NC1CCCC1)C(c1ccccn1)N(C(=O)c1csnn1)C1CC1 (stereo unspecified)
→ 1.8	-0.49
CC/C(=N\NC(=O)CNC(=O)/C=C/c1ccc(OC)cc1)c1ccccc1
→ 0.55	-0.57
Fc1cccc(CCN2CCNC[C@@H]2Cc2ccccc2)c1
→ 1.6	-0.36
COc1ccc(NC(=O)COC(=O)COc2cccc(Br)c2)cc1OC
→ 1.5	-0.15
Cc1cccc(OCCCC(=O)NC(C)C)c1
→ 0.03	0.32
O=C(CN1CCN(CCC(=O)Nc2ccccc2F)CC1)Nc1ccc(Cl)cc1
→ 0.68	0.02
CNC(=O)c1ccccc1Sc1ccccc1CO
→ 0.95	-0.3
O=c1ccc(=O)n(-c2ccccc2)[nH]1
→ 0.03	-1.6
O=C(CCn1cccc1)NCCc1ccc(Cl)cc1
→ 0.2	0.05
O=C(CSc1ncc(C(F)(F)F)cc1Cl)NCC1CCCO1 (stereo unspecified)
→ 2.1	-0.96
COC(=O)C12CCC3(SCCS3)C(C(=O)OC)(CCC13SCCS3)C2
→ 0.25	0.19
O=C(O)C1Nc2c(C(F)(F)F)ccc(Cl)c2C2C=CCC12 (stereo unspecified)
→ 1	-0.14
O=C(COC(=O)Cc1ccc(Cl)cc1)Nc1ccccc1F
→ 0.73	-0.27
CN(C)c1ccc2c3c(ccc(N(C)C)c13)C(=O)OC2
→ 0.04	-2.8
CCOC(=O)c1cnc(SCC(=O)Nc2cccc(OC)c2)nc1N
→ 1.9	-0.69
Cc1ccccc1Nc1ccc2nonc2c1[N+](=O)[O-]
→ 0.41	1.1

# Next section
SMILES | KCNQ2 pot | KCNQ2 pot baseline
Cc1cc(NC(=O)CCCC(=O)N(CC(=O)NC2CCCCC2)c2ccccc2)no1 | 1.7 | 0.05
CCN1CCN(c2ccc(NC(=O)c3ccc4c(c3)[nH]c(=O)n4Cc3ccc(OC)cc3)cc2)CC1 | 0.99 | -1.2
COC(C[C@H]1O[C@H]1[C@H](O)[C@H](C)OCc1ccccc1)OC | 0.89 | -0.4
NC(=O)CC(NC(=O)Cc1ccc(Cl)cc1)c1ccc(NC2CC3CCC2C3)c([N+](=O)[O-])c1 (stereo unspecified) | 3.5 | -0.06
COc1cccc(OC)c1OCCCCN1CCCC1 | 0.94 | -2
CCC(=O)Nc1ccc(NC(=S)NC(=O)c2oc3ccccc3c2C)cc1 | 0.15 | 0.73
CCCS(=O)(=O)NCCc1cc2c(OC)ccc(OC)c2[nH]c1=O | 0.28 | -0.23
COc1cccc(Cn2c(=S)[nH]c3ccc(N4CCOCC4)cc3c2=O)c1 | 0.89 | -0.01
O=C(C1CCC(=O)N1Cc1cccnc1)N1CCN(c2ccc(F)cc2)CC1 (stereo unspecified) | 0.48 | 0.62
CS(=O)(=O)N(CC(N)=O)c1cccc(Br)c1 | 0.65 | -3.5
COc1nnc(OC)c2ccccc12 | 0.25 | -1
CCC(C(=O)NC1CCCC1)N(Cc1ccco1)C(=O)CNS(=O)(=O)c1ccccc1 (stereo unspecified) | 1.3 | -2.1
CCOc1cccc(Nc2ccc([N+](=O)[O-])cn2)c1 | 2.3 | 1.1
COC(=O)c1cc(OC)c(OC)cc1NC(=O)C1CCC(=O)N1S(=O)(=O)c1ccc(C)cc1 (stereo unspecified) | 1.3 | -0.44
Cc1oc(-c2ccc(Cl)cc2)nc1CN1CCC(C(=O)NCc2cccnc2)CC1 | 0.41 | -0.28
O=C(COc1cccc(-n2cnnn2)c1)NC1CCCCC1 | 1.5 | -0.03
Cc1ccccc1C(=O)NC1CC(C)(C)NC(C)(C)C1 | 0.27 | 0.94
CC(=O)N(C)c1ccc(NC(=O)Cc2cccc3ccccc23)cc1 | 1.9 | 0.37
C=CCn1c(=N)c(C(=O)NCCCOC)cc2c(=O)n3cc(C)ccc3nc21 | 1.4 | 0.61
CCn1c(SCC(=O)NC2CCCCC2)nnc1-c1cccnc1 | 0.21 | -1.4
Cn1ccc(C(=O)Oc2ccc(C(=O)Nc3ccc(F)cc3F)cc2)n1 | 0.99 | 0.45
COc1ccc(CN(C)C(=O)c2cccc(C(=O)N(C)Cc3ccc(OC)cc3)c2)cc1 | 1.4 | -0.55
Cc1ccccc1-n1nc2c(c1NC(=O)C1CCCC1)CS(=O)(=O)C2 | 0.08 | 0.58
N#Cc1cccnc1Nc1cccc(Cl)c1 | 0.05 | 0.92
COc1cc(NS(=O)(=O)c2ccc(NC(=O)COc3ccccc3C)cc2)nc(OC)n1 | 0.32 | -1.3
CSc1ccc(CN2C(=O)NC3(CCCCCCC3)C2=O)cc1 | 1.6 | -0.42

# Not all compounds are listed (hit frequency here may not be typical).
